# AID504770: E. coli YBA685 growth inhibition, screen for V. cholerae RctB inhibitors | E. coli YBA685 rctB-dependent plasmid, OD600 growth, 3 h; hits give low values | z-score (no concentration beside the values) | 130,000 tested, 0.27% active | AID 504770;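 active means z-score under -2 on both plates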;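 further: wells of about 30 µL received 100 nL stock; score is relative to mean and SD of the test wells; the first replicate is given; strong numbers were not always called active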
# CapD inh: inhibitors of Bacillus anthracis CapD enzyme; purified CapD enzyme, fluorescence intensity read-out; hits give low values; some hits fall short of the stated cut; z-score (no concentration beside the values); 140,000 tested, 0.23% active;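 active means z-score under -4 in either of two replicates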;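 further: stock transfer was 100 nL into about 40 µL; score is relative to mean and spread of the plate; one replicate is shown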
# The depositor's hits bear a star; / = no result given.
SMILES,AID504770,CapD inh
Cc1csc(-c2ccc(-c3csnn3)cc2)n1,-0.45,-0.18
O=C(Nc1cccc(-c2nc3ccccc3[nH]2)c1)C1CCCO1 (configuration not stated),-0.1,15
COc1ccc(CC(=O)N2CCOCC2)cc1,0.35,0.2
Cc1ccc(-n2nnnc2-c2ccccc2)cc1,0.1,0.43
CC1CC(C)(C)NC(=S)O1 (configuration not stated),-0.05,/
CC(C)(C#N)NNC(N)=S,0.05,/
Cn1cnnc1SCC(=O)N1CCCc2ccccc21,/,-0.41
CS(=O)(=O)Nc1ccc(Cl)cc1,/,0.09
Cc1c(O)ccc(-c2n[nH]c(C(F)(F)F)c2Oc2ccccc2)c1O,1.9,0.41
Cc1cc(C(=S)NC(=O)c2ccccc2)c(C)n1C,0.8,/
O=C(CSc1nc2ccccc2c(=O)n1NC(=O)CCc1c[nH]c2ccccc12)NCCc1ccccc1,/,-0.34
Cc1nc2nc(NC(=O)C3CCCCC3)[nH]n2c(=O)c1C,-0.55,/
O=C(O)COc1ccc2c(c1)C(=O)c1cc(OCC(=O)O)ccc1-2,1.9,-0.69
COc1ccc(-n2c(=S)[nH]c3cc(C(=O)NCCSCc4ccccc4)ccc3c2=O)cc1OC,/,0.52
c1ccc(-n2ccnc2)c(-c2ncn[nH]2)c1,0.5,0.18
COc1ccc(O)c(C2=Nc3ccccc3N=C(c3ccc(C)cc3)C2)c1,/,-0.26
Cc1cc(NC(=O)C2CCCCC2)nc2c1c(=O)oc1ccccc12,-0.1,0.45
COc1ccc(C(=O)NCc2ccco2)cc1OC,0.3,-0.41
O=C(Cn1ncc2c(Cl)cccc21)NCCN1CCCC1,-0.4,-0.08
COCCCn1c(Sc2ccc(S(=O)(=O)N3CCCC3)cn2)nnc1-c1ccccc1Cl,-0.7,/
CCc1ccc(-c2ccc(=O)n(CC(=O)N3CCCCC3)n2)cc1,0.05,/
CCC(CC)NC(=O)CSc1nc2c(cnn2-c2cccc(C)c2)c(=O)[nH]1,0.3,/
c1ccc(-c2nc(-c3cccs3)[nH]c2-c2ccccc2)cc1,1.1,82
CCc1cccc(CC)c1N(COC)C(=O)CN1c2ccccc2NC1CC (configuration not stated),-0.65,/
NC1=C(C(=O)OCc2ccccc2)C2(C(=O)Nc3ccc(Br)cc32)c2c(c3ccccc3oc2=O)O1 (configuration not stated),/,-0.07
CCOC(=O)c1c(-c2ccccc2)oc2ccc(NS(=O)(=O)c3cc(C)ccc3C)cc12,/,5.5
CC(=O)NC1=NC(=O)/C(=C\c2ccc(OCc3ccccc3)cc2)S1,/,0.26
C=CCN1C(=O)c2ccccc2N2C(=O)CCC12C(=O)O (configuration not stated),0.95,/
Nc1nc(-c2ccco2)c(-c2ccco2)s1,0.1,/
O=C(CN(C(=O)Cn1nnc(-c2cccs2)n1)c1ccc2c(c1)OCCO2)NCC1CCCO1 (configuration not stated),0.1,/
CC(=O)Nc1ccc(S(=O)(=O)N2CCCCC2)cc1Cl,-0.25,0.29
CCn1c2ccccc2c2cc(NC(=O)COc3ccccc3C#N)ccc21,0.45,/
CCN(C(=O)C(C)Sc1ccc(S(=O)(=O)N2CCN(C)CC2)cn1)c1ccccc1 (configuration not stated),-0.2,/
Cc1nc(Nc2ccccc2)sc1C(=O)c1ccc2c(c1)OCCO2,-0.15,0.38
CCOC(=O)c1ccc(NC(=O)N2CC3CC(C2)c2cccc(=O)n2C3)cc1 (configuration not stated),/,-0.17
CC(C(=O)NCc1ccc(F)cc1)n1cccc1C(=O)c1ccccc1 (configuration not stated),-0.25,-1
COC(=O)C(C)NC(=O)N1CCN(c2nnc(C)c3c(C)n(-c4ccc(C)cc4)nc23)CC1 (configuration not stated),-1.1,2.7
CCOc1cc(C(F)(F)F)c(C(=O)N(CC)c2ccc(Cl)cc2)cn1,1,-0.23
CC12CN3CC(C)(CN(C1)C3c1ccc(O)c(O)c1)C2=O (configuration not stated),/,-0.49
COc1ccc(C2CC(C(F)(F)F)n3nc(C(=O)Nc4ccc(Cl)cc4)cc3N2)cc1 (configuration not stated),/,0.12
COc1ccc(OC)c(NC(=O)COc2ccc3c4c(c(=O)oc3c2)CCC4)c1,2,0.78
CC1CCN(C(=O)c2ccc(Br)cc2)CC1,1.1,/
O=C(NCc1ccc(C(F)(F)F)cc1)c1ccc(Cl)cc1Cl,-0.1,0.54
COc1ccc(C(=O)c2ccc(OC)c(OC)c2)cc1,1,-1.2
CSc1ccc(/C=N/NC(N)=S)cc1,-0.95,12
CC(C)CNC(=O)Cc1ccccc1,-1.1,/
O=C(c1cc(-c2ccc(O)cc2)on1)N1CCN(Cc2ccccc2)CC1,-1,14
O=C(OCC1(c2ccc(Cl)cc2)CC1)N1CCN(c2ccc(C(F)(F)F)cn2)CC1,/,2
CCCC1CC(C)(C(=O)C[n+]2cccc(C(N)=O)c2)OC1=O (configuration not stated),-0.05,0.055
Cc1ccc(CCS(=O)(=O)c2ccc(C(C)C)cc2)c[n+]1C,1.2,15
CCCc1nc2ccccc2n2cc3c(=O)n(C)c(=O)n(C)c3c12,-0.35,0.15
CN(C)CCN(C)CC(=O)N1c2ccccc2Sc2ccc(C(F)(F)F)cc21,/,-0.25
CCOc1ccc2[nH]c(=O)c(CN(CCO)C(=O)Nc3ccc(OC)cc3)cc2c1,-0.45,/
COCC(=O)N1CCN(Cc2ccccc2)CC1,-0.8,1.9
O=C1OC(c2ccccc2)OC(=O)C1=Cc1cccc(OCc2ccccc2)c1 (configuration not stated),-0.9,-0.04
COc1ccc(NC(=O)c2cc(F)cc3c2OCOC3)cc1,1.5,2.6
CN1CCN(c2nc(C#N)c(C#N)nc2C(C#N)=C2Nc3ccccc3N2)CC1,-0.75,/
COC(=O)c1ccc(CN2C(=O)C3CCCCC3C2=O)o1 (configuration not stated),/,0.33
COCCOC(=O)C1=C(C)NC(=O)CC1c1cccc(Cl)c1 (configuration not stated),/,-0.38
Cc1ccc(-c2nc(SCc3ccccc3)c(C#N)c3c2CCCC3)cc1,/,0.09

# Brought forward from above: three compounds, then new ones.
SMILES,AID504770,CapD inh
COC(=O)c1ccc(CN2C(=O)C3CCCCC3C2=O)o1 (configuration not stated),/,0.33
COCCOC(=O)C1=C(C)NC(=O)CC1c1cccc(Cl)c1 (configuration not stated),/,-0.38
Cc1ccc(-c2nc(SCc3ccccc3)c(C#N)c3c2CCCC3)cc1,/,0.09
O=C(NCCCN1CCCCCC1)c1cc(=O)[nH]c2ccc(S(=O)(=O)N3CCCCC3)cc12,-0.1,0.55
CS(=O)(=O)c1cnc(-c2ccc(C(F)(F)F)nc2)nc1-c1ccc(C(F)(F)F)cc1,/,-0.49
CCC(C(=O)O)n1nc(C)c2sc3ccccc3c2c1=O (configuration not stated),-0.85,12
N#CC(Cc1ccccc1)Sc1ccccc1 (configuration not stated),-1.1,-1.1
Clc1ccc(-c2nc3ccccc3cc2Oc2ccccc2Cl)cc1,/,0.045
COc1ccc(C2N3CC4([N+](=O)[O-])CN2CC([N+](=O)[O-])(C3)C4(C)C)cc1 (configuration not stated),/,0.32
Clc1ccc(CSCc2cc(N3CCCC3)nc(-c3ccccc3)n2)cc1,/,-0.085
CCNC(=S)N1CCn2cccc2C1c1ccccc1F (configuration not stated),0.3,-0.08
O=C1CSC2(C(=O)Nc3ccccc32)N1c1cc(F)ccc1F (configuration not stated),/,0
Cc1[nH]n(-c2ccccc2)c(=O)c1C(c1ccc(OCc2ccc(F)cc2)cc1)c1c(C)[nH]n(-c2ccccc2)c1=O,/,-0.14
O=C(CSc1nc2ccccc2o1)Nc1ccc(N2CCOCC2)c(Cl)c1,-0.8,-0.08
N#C/C(=C/c1ccc(-c2ccc(Br)cc2)o1)C(=O)NC1CCCCC1,0.65,/

# 14 structures out of the list, ordered by number of heavy atoms, high to low.
SMILES,AID504770,CapD inh
Cc1[nH]n(-c2ccccc2)c(=O)c1C(c1ccc(OCc2ccc(F)cc2)cc1)c1c(C)[nH]n(-c2ccccc2)c1=O,/,-0.14
O=C(NCCCN1CCCCCC1)c1cc(=O)[nH]c2ccc(S(=O)(=O)N3CCCCC3)cc12,-0.1,0.55
CCOc1ccc2[nH]c(=O)c(CN(CCO)C(=O)Nc3ccc(OC)cc3)cc2c1,-0.45,/
CN1CCN(c2nc(C#N)c(C#N)nc2C(C#N)=C2Nc3ccccc3N2)CC1,-0.75,/
CN(C)CCN(C)CC(=O)N1c2ccccc2Sc2ccc(C(F)(F)F)cc21,/,-0.25
Cc1ccc(-c2nc(SCc3ccccc3)c(C#N)c3c2CCCC3)cc1,/,0.09
COc1ccc(C2N3CC4([N+](=O)[O-])CN2CC([N+](=O)[O-])(C3)C4(C)C)cc1 (configuration not stated),/,0.32
N#C/C(=C/c1ccc(-c2ccc(Br)cc2)o1)C(=O)NC1CCCCC1,0.65,/
CCCc1nc2ccccc2n2cc3c(=O)n(C)c(=O)n(C)c3c12,-0.35,0.15
O=C1CSC2(C(=O)Nc3ccccc32)N1c1cc(F)ccc1F (configuration not stated),/,0
COc1ccc(NC(=O)c2cc(F)cc3c2OCOC3)cc1,1.5,2.6
CCC(C(=O)O)n1nc(C)c2sc3ccccc3c2c1=O (configuration not stated),-0.85,12
COCC(=O)N1CCN(Cc2ccccc2)CC1,-0.8,1.9
N#CC(Cc1ccccc1)Sc1ccccc1 (configuration not stated),-1.1,-1.1

# (further entries)
SMILES,AID504770,CapD inh
O=C(NC1CC1)c1ccc2c(c1)CCN2S(=O)(=O)c1ccccc1,0.1,-0.29
C=CCn1cc(C=C2C(=O)N(C)C(=S)N(C)C2=O)c2ccccc21,0.1,3.3
Cc1cc(C(=O)CN2C(=O)CNC2=O)c(C)n1-c1ccccc1,0.35,/
CC1(C)CC(CCNC(=O)c2ccccc2C(=O)O)(Cc2ccccc2)CCO1 (configuration not stated),0.1,-0.42
Cc1ccc(C#N)cc1,1.5,/
O=S(=O)(NC1CCN(Cc2ccccc2Sc2ccc(Cl)cc2)C1)c1ccc(F)c(F)c1 (configuration not stated),/,0.57
CCCNC(=O)c1c(OC)cccc1OC,0.05,/
O=C(CNC(=O)c1cccs1)NC1=NCCS1,1.4,0.67
O=C1c2ccccc2C(=O)N1CNN1CCCc2ccccc21,-0.55,0.3
O=C(CSc1ccc(-c2ccco2)nn1)N1CCCc2ccccc21,0.85,/
O=c1/c(=C/c2cn(Cc3ccccc3Cl)c3ccccc23)sc2nc3ccccc3n12,/,0.35
COc1ccc(-n2c(SCC(=O)c3ccc(Cl)cc3)nc3ccccc3c2=O)cc1,0.2,0.2
O=C(/C=C/c1ccccc1)N1CCc2ccccc21,1.7,/
COc1cc(/C=N/NC(=O)c2cc3ccccc3s2)cc(OC)c1OC,/,22
CC1=NC(=O)/C(=C\c2ccc(O)cc2)N(C)N1c1ccccc1,-0.45,-0.81
COc1ccc(OC)c(N2C(=O)C3C4C=CC(CC4)C3C2=O)c1 (configuration not stated),/,0.03
CCN1CCN(c2cc(C)c3cc(NC(=S)N4CCOCC4)ccc3n2)CC1,-0.2,1.4
CC(C)NC(=O)c1ccccc1NS(=O)(=O)c1ccc(F)cc1,-0.4,1.5
O=C(OCCCc1cccnc1)N1CCN(c2ccc(C(F)(F)F)cn2)CC1,/,6.2
CC(NC(=O)c1cccnc1)C(c1ccccc1)N1CCN(C)CC1 (configuration not stated),-0.05,0.45
CC1c2cccn2CCN1C(=O)CCn1ccnc1 (configuration not stated),0.5,/
COc1cc(C2Nc3ccccc3S2)cc(OC)c1OC (configuration not stated),-0.65,95
CC(C)(C)c1ccc(N2C(=O)/C(=C/c3ccc(Cl)cc3)C=C2c2ccccc2)cc1,/,-0.1
CCOC(=O)c1c(C)n(CCCNc2ccc([N+](=O)[O-])cc2Cl)c2ccc(O)cc12,/,-0.18
O=C(c1ccc(NS(=O)(=O)c2ccc(Cl)s2)cc1)N1CCN(C(=O)c2cccs2)CC1,1.9,/
Cc1ccc(Cn2c3ccccc3n3cc(C)nc23)cc1,0.3,-0.37
Cc1ccc(C(=O)Nc2cc3[nH]c(=O)[nH]c3cc2C)cc1,0.3,-0.52
O=C(/C=C/c1ccco1)OC(C(=O)c1ccccc1)c1ccccc1 (configuration not stated),-0.5,0.33
CCNS(=O)(=O)c1c(C)cc(N2CCCC2=O)cc1C,-0.35,-0.2
COc1cccc(C(=O)Oc2ccc3oc(=O)sc3c2)c1,1.6,0.055
CCOC(=O)C1=C(CNc2ccc(OCC)cc2)NC(=O)NC1c1ccccc1 (configuration not stated),-0.9,0.64
CCOc1ccc(N2CCN(C(=O)C(C)(C)Cc3cc(C)cc(C)c3C(=O)O)CC2)cc1,/,0.2
NC(=O)COC(=O)C1CCN(S(=O)(=O)c2ccccc2C(F)(F)F)CC1,-0.3,/
O=S(=O)(CCCCl)NC1CCN(Cc2ccccc2)CC1,1.4,0.23
CC(=O)Nc1ncnc2nc[nH]c12,-0.2,/
O=C1c2ccccc2C(=O)N1CN1CCN(Cc2ccccc2)CC1,0.15,/
O=C(c1cc2nc(-c3ccco3)cc(C(F)(F)F)n2n1)N1CCSCC1,-0.75,6.9
CC1=C(C(=O)OC(C)C)C(c2ccco2)C(C#N)=C(N)O1 (configuration not stated),/,-0.53
COc1cccc(C(Nc2ccccn2)c2oc(CO)cc(=O)c2O)c1 (configuration not stated),-0.45,/
C=CCN(C(=O)c1ccc(N2CC3CC(C2)c2cccc(=O)n2C3)c(NC(=O)/C=C/c2ccccc2)c1)c1ccccc1 (configuration not stated),/,-0.69
S=c1[nH]nc(CSCc2cccc3ccccc23)n1-c1ccccc1,/,0.38
O=C(CSC1=NCCCCC1)c1ccc([N+](=O)[O-])cc1,/,-0.36
COc1ccc(-c2[nH]ncc2/C=C(\C#N)S(C)(=O)=O)cc1,0.9,-0.38
COCCn1c(O)c(/C=N/Nc2nc(C)cc(C)n2)c(=O)[nH]c1=S,-0.2,/
Cc1ccccc1NC(=S)N1CCOCC1,/,0.83
COc1ccc(OS(=O)(=O)c2ccc(NC(C)=O)cc2)cc1,/,0.23
CSc1nc(=O)n(Cc2ccccn2)c2c1CCC2,-0.15,/
COc1cc(OC)nc(CSCCN)n1,/,-0.33
